# Screens: PubChem BioAssay, Broad Institute
# NOMO-1 viab = STK33 inhibitor candidate reducing NOMO-1 cell viability; NOMO-1 AML viability, CellTiter-Glo luminescence, 72 h; inhibition, % (test concentration not listed); actives 7.5% (n = 37,000);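 active means most replicates above 80%; inconclusive means exactly half above 80%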;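 further: wells of about 30 µL received 25 nL stock; 0% = median of vehicle wells and 100% = reference inhibitor level; the first replicate is given; inactives centre near 10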
# * marks the source's active call; other numbers are inactive results; u = inconclusive. Not all compounds are listed; rates above refer to the full screens.
compound,NOMO-1 viab
C[C@H](CO)N1C[C@H](C)[C@H](CN(C)Cc2ccc(Oc3ccccc3)cc2)Oc2ccc(NS(=O)(=O)c3ccc(Cl)cc3)cc2CC1=O,116.4*
CNC[C@@H]1Oc2ccc(NC(=O)Cn3cnnn3)cc2C(=O)N([C@@H](C)CO)C[C@@H]1C,6.1
C[C@H]1CN([C@@H](C)CO)C(=O)c2cccc(NC(=O)C3CC3)c2O[C@@H]1CN(C)S(C)(=O)=O,13.8
CCOC(=O)C1CCCn2c1nc1sc3c(c1c2=O)CCCC3 (centres undefined),47.2
C[C@H]1CN([C@@H](C)CO)C(=O)c2cc(NC(=O)Nc3ccc4c(c3)OCO4)ccc2O[C@H]1CN(C)Cc1ccc(C(=O)O)cc1,-16.6
COc1ccc(NC(=O)N(C)C[C@@H]2Oc3ccc(NC(=O)CCCCCC(=O)Nc4ccccc4N)cc3C(=O)N([C@@H](C)CO)C[C@@H]2C)cc1,11.4
CCCCN1C(=O)C(O)(CC(=O)c2ccco2)c2cc(Br)ccc21 (centres undefined),113.0*
C[C@@H]1CN([C@@H](C)CO)C(=O)Cc2cc(NS(=O)(=O)c3cccs3)ccc2O[C@@H]1CN(C)Cc1ccc(C(F)(F)F)cc1,-0.1
Cc1noc(C)c1S(=O)(=O)Nc1ccc2c(c1)CC(=O)N([C@@H](C)CO)C[C@@H](C)[C@@H](CN(C)C(=O)Nc1ccc(F)cc1)O2,3.3
C[C@H]1CN([C@@H](C)CO)C(=O)c2cc(NC(=O)Nc3ccc(C(F)(F)F)cc3)ccc2O[C@H]1CN(C)C(=O)Nc1cccc2ccccc12,u
Cc1noc(C)c1S(=O)(=O)N(C)C[C@H]1Oc2ccc(NC(=O)NC(C)C)cc2CC(=O)N([C@@H](C)CO)C[C@@H]1C,9.4
Cc1c(C(=O)O)sc2nc(SCC(=O)Nc3ccccc3C(F)(F)F)[nH]c(=O)c12,-6.8
Cc1cccc(NC(=O)CSc2nc3sc(C)c(C)c3c(=O)n2C)c1C,31.5
COc1ccc(OC)c(N(CC(=O)N2CCC(C)CC2)S(C)(=O)=O)c1,-5.0
C[C@H]1CN([C@@H](C)CO)C(=O)c2cc(NC(=O)CCCN(C)C)ccc2O[C@@H]1CN(C)S(=O)(=O)c1cccs1,10.6
C[C@@H]1CN([C@H](C)CO)C(=O)c2cc(NS(=O)(=O)c3cn(C)cn3)ccc2O[C@@H]1CN(C)C,7.4
Cc1c(C)c(C)c(S(=O)(=O)NCCCN2CCOCC2)c(C)c1C,8.7
C[C@H]1CN([C@@H](C)CO)C(=O)c2cccc(NS(=O)(=O)c3ccc(Cl)cc3)c2O[C@H]1CN(C)C(=O)Nc1ccc(F)cc1,12.3
C[C@@H]1CN([C@@H](C)CO)C(=O)Cc2cc(NC(=O)CCC(F)(F)F)ccc2O[C@@H]1CN(C)Cc1ccc(C(=O)O)cc1,6.6
Cc1ccc(S(=O)(=O)Nc2ccc3c(c2)CC(=O)N([C@H](C)CO)C[C@@H](C)[C@H](CN(C)Cc2ccc(-c4ccccc4)cc2)O3)cc1,95.2*
CCOc1ccc(NC(=O)C(C)Sc2nc3ccc(F)cc3[nH]2)cc1 (centres undefined),24.6
Cc1noc(C)c1S(=O)(=O)Nc1ccc2c(c1)CC(=O)N([C@@H](C)CO)C[C@@H](C)[C@@H](CN(C)C(=O)Nc1ccc3c(c1)OCO3)O2,-21.2
C[C@H](CO)N1C[C@H](C)[C@H](CN(C)S(=O)(=O)c2ccccc2)Oc2ccc(NC(=O)CCCN(C)C)cc2C1=O,15.3
O=C(COc1ccccc1C(=O)O)Nc1ccccc1,17.4
Cc1nc(NCC2CCCO2)c2c3c(sc2n1)CCC3 (centres undefined),20.7
COc1ccc(N(C(=O)c2ccncc2)S(=O)(=O)c2cccc([N+](=O)[O-])c2)cc1,35.8
C[C@H](CO)N1C[C@H](C)[C@@H](CN(C)S(=O)(=O)c2cn(C)cn2)Oc2c(NC(=O)Nc3ccc(F)cc3)cccc2C1=O,7.7
C[C@@H]1CN([C@@H](C)CO)C(=O)c2cccc(NS(=O)(=O)c3cccs3)c2O[C@H]1CN(C)C(=O)NC1CCCCC1,0.8
C[C@@H]1CN([C@@H](C)CO)C(=O)c2cccc(NS(C)(=O)=O)c2O[C@@H]1CN(C)Cc1ccccc1,-13.9
C[C@H](CO)N1C[C@H](C)[C@H](CN(C)S(C)(=O)=O)Oc2ccc(N(C)C)cc2CC1=O,15.1
O=C(COc1cc(O)c2c(=O)c3ccccc3oc2c1)c1cccc([N+](=O)[O-])c1,-10.1
COc1ccc(NC(=O)N(C)C[C@H]2Oc3ccc(NC(=O)C4CCCCC4)cc3C(=O)N([C@H](C)CO)C[C@H]2C)cc1,7.0
COc1ccc(S(=O)(=O)Nc2ccc3c(c2)C(=O)N([C@H](C)CO)C[C@H](C)[C@@H](CN(C)C)OCCCC[C@@H](C)O3)cc1,16.8
C[C@H](CO)N1C[C@H](C)[C@H](CN(C)CC2CCCCC2)Oc2c(NC(=O)Nc3cccc4ccccc34)cccc2C1=O,9.6
C[C@@H]1CN([C@@H](C)CO)C(=O)c2cccc(NC(=O)C3CCOCC3)c2O[C@@H]1CN(C)Cc1ccc(C(F)(F)F)cc1,13.0
C[C@H](CO)N1C[C@H](C)[C@H](CN(C)Cc2ccc(C(=O)O)cc2)Oc2ccc(NC(=O)NC3CCCCC3)cc2CC1=O,-8.5
CNC[C@@H]1Oc2c(NS(=O)(=O)c3ccccc3)cccc2C(=O)N([C@H](C)CO)C[C@@H]1C,10.1
COc1ccc(NC(=O)N(C)C[C@@H]2Oc3ccc(NC(=O)CCN4CCOCC4)cc3CC(=O)N([C@H](C)CO)C[C@H]2C)cc1,13.4
CC(C)NC(=O)N(C)C[C@H]1Oc2ccc(NC(=O)C3CCCCC3)cc2C(=O)N([C@H](C)CO)C[C@H]1C,6.1
C[C@@H]1CN([C@@H](C)CO)C(=O)c2cccc(NS(=O)(=O)c3ccc(Cl)cc3)c2O[C@H]1CN(C)Cc1ccncc1,21.1
COc1ccc(S(=O)(=O)Nc2ccc3c(c2)C(=O)N([C@H](C)CO)C[C@H](C)[C@@H](CN(C)Cc2ccc4c(c2)OCO4)O3)cc1,18.4
O=C(CSc1ccc(Cl)cc1)Nc1cscc1S(=O)(=O)c1ccc(Cl)cc1,23.2
C[C@@H]1CN([C@H](C)CO)C(=O)c2cccc(NC(=O)Nc3ccc(F)cc3)c2O[C@H]1CN(C)S(=O)(=O)c1cccs1,13.0
Cc1ccc(S(=O)(=O)N(C)CC(=O)Nc2ccc(Cl)cc2C(F)(F)F)cc1,14.4
CC(C(=O)Nc1cccc(Cl)c1)N(c1ccc(Cl)cc1)S(C)(=O)=O (centres undefined),34.0
C[C@@H]1CN([C@H](C)CO)C(=O)c2cc(NC(=O)C3CCCCC3)ccc2O[C@@H]1CN(C)Cc1ccc(Cl)c(Cl)c1,51.4
COc1ccc(CN(C)C[C@H]2Oc3c(NS(=O)(=O)c4ccc(F)cc4)cccc3C(=O)N([C@@H](C)CO)C[C@H]2C)cc1,10.3
O=C(CSc1nc2ccccc2o1)N1N=CCC1c1ccccc1 (centres undefined),7.1
C[C@@H]1CN([C@H](C)CO)C(=O)c2cccc(NC(=O)C3CC3)c2O[C@@H]1CN(C)C,-8.1
O=C(CSc1nnc(-c2cccc(Br)c2)n1-c1ccccc1)c1ccc(F)cc1,u
C[C@@H]1CN([C@H](C)CO)C(=O)c2cc(NS(=O)(=O)c3cccs3)ccc2O[C@H]1CN(C)Cc1ccc(C(=O)O)cc1,-4.9
C[C@@H]1CN([C@@H](C)CO)C(=O)Cc2cc(NS(=O)(=O)c3ccccc3)ccc2O[C@@H]1CN(C)Cc1ccc(C(=O)O)cc1,-8.0
C[C@H](CO)N1C[C@H](C)[C@@H](CN(C)S(=O)(=O)c2ccccc2)Oc2ccc(NS(=O)(=O)c3ccc(F)cc3)cc2C1=O,17.8
O=C(O)c1ccc(NS(=O)(=O)c2cccc(S(=O)(=O)c3ccc(Cl)c(Cl)c3)c2)cc1,15.1
C[C@H]1CN([C@@H](C)CO)C(=O)Cc2cc(NC(=O)C3CCCCC3)ccc2O[C@@H]1CN(C)Cc1ccc(-c2ccccc2)cc1,54.7
Cc1ccc(S(=O)(=O)Nc2ccc3c(c2)CC(=O)N([C@H](C)CO)C[C@@H](C)[C@@H](CN(C)C(=O)NC2CCCCC2)O3)cc1,9.7
CC(Oc1cccc(NC(=O)c2cccc([N+](=O)[O-])c2)c1)C(=O)c1cccc(Cl)c1 (centres undefined),-1.5
CNC(=O)CN(c1cccc(Cl)c1Cl)S(=O)(=O)c1ccc(C)cc1,7.4
COc1ccc(NC(=O)CSc2n[nH]c(-c3ccc(Cl)cc3Cl)n2)cc1,38.0
OC1CCN(Cc2ccccc2)CC1,9.5

# Further records.
compound,NOMO-1 viab
COc1cc(Cl)c(C)cc1NC(=O)CC1Sc2ccccc2NC1=O (centres undefined),u
C[C@@H]1CN([C@@H](C)CO)C(=O)c2cccc(NC(=O)Nc3ccccc3)c2O[C@@H]1CN(C)Cc1ccc2c(c1)OCO2,35.1
C[C@@H]1CN([C@@H](C)CO)C(=O)c2cccc(NC(=O)c3cnccn3)c2O[C@@H]1CN(C)C(=O)Nc1ccc2c(c1)OCO2,-0.5
C[C@@H]1CCCCO[C@@H](CN(C)S(=O)(=O)c2cccs2)[C@@H](C)CN([C@H](C)CO)C(=O)c2cc(NC(=O)Nc3ccccc3)ccc2O1,-1.1
CN(C)c1nc(N)nc(CSc2nnnn2-c2cccc3ccccc23)n1,u
O=C(CSc1nnc(-c2ccncc2)n1-c1ccccc1)Nc1c(Cl)cccc1Cl,3.3
Cc1ccc(S(=O)(=O)Nc2ccc3c(c2)CC(=O)N([C@@H](C)CO)C[C@H](C)[C@@H](CN(C)C)O3)cc1,16.3
O=C(COc1ccc(Cl)cc1CO)Nc1ccccc1F,8.0
C[C@H]1CN([C@@H](C)CO)C(=O)c2cc(NC(=O)CCCN(C)C)ccc2O[C@H]1CN(C)Cc1ccccc1,-13.4
C[C@H]1CN([C@@H](C)CO)C(=O)c2cc(NC(=O)Cn3cnnn3)ccc2O[C@@H]1CN(C)S(=O)(=O)c1cccs1,-7.0
COc1ccc(CN(C)C[C@@H]2Oc3ccc(NC(=O)CCC(F)(F)F)cc3C(=O)N([C@@H](C)CO)C[C@H]2C)cc1,-7.4
C[C@@H]1CN([C@H](C)CO)C(=O)c2cc(NC(=O)C3CC3)ccc2O[C@@H]1CN(C)S(=O)(=O)c1cccs1,0.7
NC(=O)c1c(NC(=O)COc2ccc(Cl)cc2Cl)sc2c1CCCC2,25.4
C[C@H]1CN([C@@H](C)CO)C(=O)c2cccc(NC(=O)C3CC3)c2O[C@@H]1CN(C)Cc1ccc(C(F)(F)F)cc1,37.9
Cn1c(=O)c2c(nc(NCCN3CCOCC3)n2Cc2ccc(Cl)cc2Cl)n(C)c1=O,9.9
COc1ccc(S(=O)(=O)Nc2cccc3c2O[C@H](CN(C)S(=O)(=O)c2ccc(F)cc2)[C@@H](C)CN([C@H](C)CO)C3=O)cc1,-6.5
C[C@@H]1CN([C@@H](C)CO)C(=O)c2cc(NS(C)(=O)=O)ccc2O[C@H]1CN(C)Cc1ccc(Cl)c(Cl)c1,13.2
COc1ccc(S(=O)(=O)Nc2ccc3c(c2)C(=O)N([C@@H](C)CO)C[C@@H](C)[C@H](CN(C)Cc2ccc(C(=O)Nc4ccccc4N)cc2)O3)cc1,40.4
CS(=O)(=O)N(CC(=O)Nc1ccc(C(F)(F)F)cc1)c1ccc(F)cc1,43.8
COc1ccc(NC(=S)N2CCNC(=O)C2CC(=O)Nc2ccc(C)cc2)cc1 (centres undefined),12.6
COc1ccccc1-c1nc(N)n[nH]1,-15.4
COC(=O)c1ccccc1NC(=O)CSc1nnnn1C,23.8
Cc1ccc(S(=O)(=O)N2CCN(c3nc4ccccc4nc3-n3nc(C)cc3C)CC2)cc1,24.4
CS(=O)(=O)N(CC(=O)Nc1ccc2ccccc2c1)c1ccc(Cl)cc1Cl,48.6
Cc1ccccc1-c1cc(C(=O)NCCCn2cc(Br)cn2)c2ccccc2n1,6.6
COc1cccc(NC(=O)CN(C)S(=O)(=O)c2ccc(OC)c(C)c2)c1,-15.8
C[C@@H]1CN([C@H](C)CO)C(=O)Cc2cc(NC(=O)Cc3cn(C)c4ccccc34)ccc2O[C@H]1CN(C)Cc1ccc2c(c1)OCO2,19.0
CNC[C@H]1Oc2c(NS(=O)(=O)c3cn(C)cn3)cccc2C(=O)N([C@H](C)CO)C[C@H]1C,3.6
O=C(CCCN1C(=O)c2ccccc2C1=O)Nc1ccc(Cl)c(Cl)c1,-3.6
CNC(=O)CN(c1ccc2c(c1)OCCO2)S(C)(=O)=O,-10.7
COc1ccc(CN(C)C[C@@H]2Oc3ccc(NS(C)(=O)=O)cc3C(=O)N([C@H](C)CO)C[C@H]2C)cc1,-5.6

# Three of the compounds above, with each value named:
O=C(COc1ccc(Cl)cc1CO)Nc1ccccc1F
- NOMO-1 viab: 8.0
C[C@H]1CN([C@@H](C)CO)C(=O)c2cc(NC(=O)CCCN(C)C)ccc2O[C@H]1CN(C)Cc1ccccc1
- NOMO-1 viab: -13.4
C[C@H]1CN([C@@H](C)CO)C(=O)c2cc(NC(=O)Cn3cnnn3)ccc2O[C@@H]1CN(C)S(=O)(=O)c1cccs1
- NOMO-1 viab: -7.0

# By substructure: those above containing bromine.
compound,NOMO-1 viab
CCCCN1C(=O)C(O)(CC(=O)c2ccco2)c2cc(Br)ccc21 (centres undefined),113.0*
O=C(CSc1nnc(-c2cccc(Br)c2)n1-c1ccccc1)c1ccc(F)cc1,u
Cc1ccccc1-c1cc(C(=O)NCCCn2cc(Br)cn2)c2ccccc2n1,6.6
